# StopGo reporter – lowers the luciferase signal of an FMDV 2A StopGo reporter; AID 1159524; human cells with a luciferase reporter of 2A StopGo recoding; control for the full effect not named in the record; 410,000 compounds, 1.2% hits; Potency, µM (top dose mostly 57.9 µM), inactives show top-dose signal change, negative = less light; active = well fitted falling curve with a large enough effect; inconclusive = small, poorly fitted or top-dose-only effect; inactive = no such curve, though single readings can be large or run the other way; tested in HEK293T cells; further: on the % scale 0 is the no-effect control and ±100 the full control effect; nearly all actives have a fitted effect of over 45% in size; luciferase light after 4 h
# LASV entry inh – blocks Lassa virus binding to or entry into cells. Lassa virus pseudotype entry inhibition, cell reporter; control for the full effect not named in the record. Potency, µM (top dose mostly 37.9 µM), for inactives: at the highest dose activity change, negative = inhibition, hits mostly inhibitors. 300,000 compounds, 1.2% hits. AID 540256; active means well fitted inhibition curve with a large enough effect; inconclusive means small, poorly fitted or top-dose-only effect, or effect the other way; inactive means flat fitted curve, though single readings scatter; tested in HEK293 cells; further: on the % scale 0 is the no-effect control and ±100 the full control effect; nearly all actives have a fitted effect of over 50% in size; luciferase read-out
# NS1 function inh – influenza NS1 inhibition | S. cerevisiae slowed by influenza A NS1, growth recovery by OD600 | Potency, µM (top dose mostly 46.1 µM), for the others: at the highest dose activity, positive = more growth | 270,000 compounds, 0.4% hits | AID 2326; further: actives are rising curves; nearly all actives have a fitted effect of over 50% in size
#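 In this qHTS, NS1 from influenza A is expressed in budding yeast, where it slows growth. Cells are switched from glucose to 2% galactose medium (pH 6.0, -URA), treated with compound, and growth recovery is read at OD600.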
# SARS PLP yeast – blocks SARS-CoV papain-like protease in a yeast assay. S. cerevisiae expressing SARS-CoV PLpro, growth rescue; control for the full effect not named in the record. 330,000 compounds, 0.19% hits. Potency, µM (highest dose often 32.9 µM), inactives show top-dose activity, positive = growth rescue; further: 0% is about no effect; nearly all actives have a fitted effect of over 55% in size; growth read by luminescence after 48 h
# Cruzain noTriton – cruzain (T. cruzi) inhibition without detergent. purified cruzain, Z-FR-AMC fluorescence, no detergent. Potency, µM, without a hit: max response, negative = inhibition, usual class: inhibitors. 200,000 compounds, 2.3% hits; active means well fitted curve in the direction sought with a large enough effect; inconclusive means small, poorly fitted or top-dose-only effect, or another doubt; inactive means no such curve, though single readings can be large; an effect the other way counts as inactive or inconclusive;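 further: plate controls were enzyme without inhibitor for no effect and buffer without enzyme for full effect; nearly all actives have a fitted effect of over 40% in size; top concentration of the series not given in the record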
# Target sequence (P25779 123-467 limits assumed): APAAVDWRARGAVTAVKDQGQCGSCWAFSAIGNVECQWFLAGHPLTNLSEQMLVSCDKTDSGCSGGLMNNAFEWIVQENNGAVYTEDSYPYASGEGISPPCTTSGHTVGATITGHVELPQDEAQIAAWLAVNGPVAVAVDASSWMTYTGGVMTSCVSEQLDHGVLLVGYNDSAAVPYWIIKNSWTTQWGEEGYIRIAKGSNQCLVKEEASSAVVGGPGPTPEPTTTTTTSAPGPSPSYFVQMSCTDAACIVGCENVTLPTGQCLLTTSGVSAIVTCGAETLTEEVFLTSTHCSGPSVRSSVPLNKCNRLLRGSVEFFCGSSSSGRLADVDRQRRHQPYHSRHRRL
#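 Detergent-free condition (0.00005% Triton X-100) in acetate buffer pH 5.5 with DTT. 1.5 nM enzyme and compound were pre-mixed 15 min, then 2 uM Z-FR-AMC substrate added; reaction progress from fluorescence change between first and third reads (60 s).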
# Cruzain inh Det – blocks cruzain activity in presence of Triton detergent. P25779. AID 1478. purified cruzain, Z-FR-AMC fluorescence, 0.01% Triton. Potency, µM, for inactives: max response, negative = inhibition, usual class: inhibitors. 200,000 compounds, 0.43% hits; active means well fitted curve in the direction sought with a large enough effect; inconclusive means small, poorly fitted or top-dose-only effect, or another doubt; inactive means no such curve, though single readings can be large; an effect the other way counts as inactive or inconclusive;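 further: plate controls were neutral wells for no effect and buffer without enzyme for full effect; nearly all actives have a fitted effect of over 40% in size; top concentration of the series not given in the record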
#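 Sodium acetate buffer (100 mM, pH 5.5) containing 5 mM DTT and 0.01% Triton X-100 hosted 1.5 nM cruzain and test compound for 15 min at room temperature. Cleavage of 2 uM Z-FR-AMC was then tracked by fluorescence.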
# RE007 growth inh – less growth of the S. pombe RE007 Vpr strain | S. pombe RE007 Vpr strain, BacTiter-Glo ATP luminescence, 24 h; control for the full effect not named in the record | Potency, µM (top dose mostly 92.2 µM), without a hit: at the top dose activity change, negative = less growth | 360,000 compounds, 0.21% hits; active = well fitted falling curve with a large enough effect; inconclusive = small, poorly fitted or top-dose-only effect; inactive = no such curve, though single readings can be large or run the other way;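 further: on the % scale 0 is the no-effect control and ±100 the full control effect; nearly all actives have a fitted effect of over 50% in size; the assay follows cell death caused by Vpr and the record does not say whether a fall means rescue or toxicity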
#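 Fission yeast RE007 carrying one integrated HIV-1 vpr copy, seeded at OD 0.01 in PMG+AL medium with 23 nL pinned compound. Grown 24 h at 30 degrees; viability read by BacTiter-Glo luminescence after 5 min.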
# Marburg entry inh – blocks Marburg virus binding to or entry into cells. AID 540276. Potency, µM (series often up to 37.8 µM), for the others: at the top dose activity change, negative = inhibition, actives largely listed as inhibitors. 300,000 compounds, 1.8% hits. Marburg virus pseudotyped entry inhibition, cell reporter; control for the full effect not named in the record; about a third of the inactives were read at about 46 µM; active = well fitted inhibition curve with a large enough effect; inconclusive = small, poorly fitted or top-dose-only effect, or effect the other way; inactive = flat fitted curve, though single readings scatter; tested in HEK293 cells; about a fifth of its hits are not listed in these tables; further: on the % scale 0 is the no-effect control and ±100 the full control effect; luciferase read-out
# * hit, by the source's call; ? = inconclusive; / = no result given; & = joins results of further samples; [ ] = another dose, or the depositor's remark. Unless noted, the call rests on the fitted dose curve; in most records, active means well fitted rising curve with a large enough effect; inconclusive means small, poorly fitted or top-dose-only effect; inactive means no such curve, though single readings can be large or run the other way. Potency means the concentration at half of the fitted maximal effect.
SMILES,StopGo reporter,LASV entry inh,NS1 function inh,SARS PLP yeast,Cruzain noTriton,Cruzain inh Det,RE007 growth inh,Marburg entry inh
COC(=O)N/N=C\c1cccc(OC(=O)c2cccs2)c1,6.3%,2.6%[46.1 µM],/,-5.2%,/,/,-10.5%,-3.1%[46.1 µM]
Cc1ccc(C)c(C(=O)C(C)Sc2nc3nn(-c4ccccc4)c(=O)c-3c3n2CCCCC3)c1 (stereo not drawn),-22.2%,/,15.0%,5.9%,/,/,-5.7%,/
Cc1ccc(S(=O)(=O)NCc2ccc(C(=O)N3CCCC3)cc2)cc1,27.9%,0.8%,1.7%,13.0%,1.3%,-0.9%,4.3%,12.1%
COc1ccc(CN(CC(=O)NC(C)C)C(=O)CCC(=O)Nc2nccs2)cc1,7.3%,/,-0.6%,0.1%,/,/,-19.2%,13.9%[46.1 µM]
COC(=O)C(C)Oc1ccc2c(-c3cccc([N+](=O)[O-])c3)cc(=O)oc2c1 (stereo not drawn),-1.9%,-6.2%,-3.5%,-0.2%,0.2%,-1.3%,4.4%,11.3%
O=C1CCC(=O)N1CC(O)COc1ccccc1 (stereo not drawn),6.3%,/,3.2%,0.8%,/,/,12.9%,/
O=C(Nc1cccc(O)c1)c1cccc(NC(=O)c2cccs2)c1,1.5%,-13.7%[46.1 µM],6.1%,1.5%,/,/,-19.7%,?
CCN1CCCC1CNC(=O)CCc1nc(-c2ccc(C)cc2)no1 (stereo not drawn),0.0%,8.1%,-2.1%,-1.3%,6.0%,-0.4%,26.2%,?
O=C1CCCN2N=C(SCC(=O)Nc3ccc(Cl)cc3)SC2=N1,-7.1%,?,-10.7%,0.4%,/,/,-5.5%,0.0%[46.1 µM]
CC1Cc2cc(S(=O)(=O)N3CCC(C(=O)Nc4ccccn4)CC3)ccc2N1C(=O)C1CCC1 (stereo not drawn),?,?,-11.8%,-0.6%,/,/,-12.1%,?
COc1ccc(Nc2nc(N)nc(CCl)n2)cc1,45.3%[activator],/,1.7%,0.4%,/,/,19.8%,/
O=C(COC(=O)CCNS(=O)(=O)c1ccc(Cl)cc1)NCc1ccco1,-2.9%,8.8%,0.6%,5.7%,5.9%,4.8%,21.1%,13.4%[46.1 µM]
Cc1nc(NC(=O)CSc2nnc(-c3ccccc3)c(-c3ccccc3)n2)c(Cl)cc1Cl,-5.2%,-17.1%,8.5%,-3.5%,?,-12.5%,14.1%,11.5%
Cc1ccc2oc(C(Cl)(Cl)Cl)cc(=O)c2c1,/,-26.6%,-7.0%,-8.4%,6.2%,-7.6%,3.8%,11.6µM*
Cc1occc1-c1nnc(SCC(=O)NC(C)(C)C)n1CC(C)C,-4.4%,1.6%[46.1 µM],4.9%,0.8%,/,/,9.4%,-1.8%[46.1 µM]
CCOC(=O)C1(CCOc2ccccc2)CCN(Cc2ccccc2OC)CC1,?,/,-8.7%,14.7%,/,/,-10.1%,/
COc1cccc(C(C#N)N2CCOCC2)c1 (stereo not drawn),18.6%,15.4%,5.8%,20.0%,-2.1%,4.4%,-6.4%,?
Cc1cc[n+](-c2[nH]c(=O)sc2/C=N/NC(=O)c2ccccc2[O-])cc1C,3.4%,10.1%,11.0%,20.8%,-10.2%,-13.6%,7.4%,-10.0%
CCOc1ccc2[nH]cc(S(=O)(=O)c3ccc(C)cc3)c(=O)c2c1,21.6%,/,-2.6%,1.7%,/,/,-3.0%,/
Cc1ccc(N2CSC3=C(C#N)C(c4cccs4)CC(=O)N3C2)cc1 (stereo not drawn),16.0%,/,13.2%,3.6%,-13.0%,-7.6%,-2.5%,/
CCc1ccc2[nH]c(=O)c(CN(CCO)C(=O)NCc3ccccc3)cc2c1,-24.4%,-0.5%,-4.0%,-1.5%,-16.6%,0.7%,3.4%,-12.9%
O=C(/C=C/c1ccccc1)Nc1ccc(N2CCCCC2)cc1,11.1%,7.6%,9.0%,-7.3%,-2.9%,-5.1%,4.8%,-19.8%
Cc1nnc(SCC(=O)NC2CCCCCC2)n1C,11.4%,/,22.3%,5.4%,/,/,-4.2%,/
COc1ccc(OC)c(S(=O)(=O)N2Cc3ccccc3CC2C(=O)Nc2nccs2)c1 (stereo not drawn),41.6%[activator],-12.4%,-27.4%,4.1%,-5.5%,-3.0%,7.5%,?
O=C(C[n+]1cc(-c2ccc(Cl)cc2)n2c1CCC2)Nc1nc(-c2ccccc2)cs1,2.1%,/,9.5%,0.4%,/,/,19.4%,/
CSc1n[nH]c(-c2sccc2OCc2ccc(C)cc2)n1,?,-3.6%,-67.1%,-2.1%,-0.8%,-2.6%,5.0%,-26.7%
CCNC(=S)N(CCc1c(C)[nH]c2ccc(Cl)cc12)Cc1cccnc1,-26.5%,9.9%[46.1 µM],1.4%,-1.2%,/,/,-6.2%,?
Cn1c(=O)n(CC(N)=O)c(=O)c2c1nc1n2CCCN1Cc1ccccc1,-11.8%,/,5.9%,0.4%,/,/,-8.5%,/
O=C(COC(=O)C1CCN(c2ccc(C(F)(F)F)cn2)CC1)Nc1ccc(Cl)cc1,-15.2%,15.2%,/,-23.4%,/,/,-8.4%,?
CN(C)CCCNC(=O)/C=C/c1ccc2c(c1)OCO2,5.6%,16.1%,19.1%,15.4%,-14.0%,-7.8%,3.2%,7.7%
Cn1c(=O)c2c(nc(N3CCN(C(=O)c4ccco4)CC3)n2CCSc2ncccn2)n(C)c1=O,-7.0%,-16.7%[46.1 µM],/,-1.5%,/,/,4.5%,-3.7%[46.1 µM]
COc1ccc(C(CNC(=O)CNC(=O)c2ccccc2Cl)N2CCCC2)cc1 (stereo not drawn),5.9%,25.5%,/,-2.0%,/,/,-29.6%,-25.6%[46.1 µM]
Cc1cccc(C(=O)N2CCN(c3ccc(N4CCOCC4)nn3)CC2)c1,-7.3%,-14.4%[46.1 µM],3.3%,-0.6%,/,/,-11.5%,1.3%[46.1 µM]
COc1cccc2c1cc1c(=O)n(CC(=O)N3CCN(c4cccc(C)c4C)CC3)nc(C)n12,-21.9%&-14.4%,-0.3%,/,/,7.6%,0.8%,-8.3%,3.8%&15.4%[46.1 µM]
CCCCN(C(=O)c1cc(S(=O)(=O)N2CCCCCC2)ccc1OC)c1c(N)n(CCC)c(=O)[nH]c1=O,11.4%,1.8%[46.1 µM],/,2.5%,/,/,-4.8%,-1.4%
CCCCNC(=O)OC(C)CNC(=O)OC (stereo not drawn),-3.5%,0.0%,4.2%,2.4%,3.7%,6.0%,-4.3%,15.0%
Cc1ccc(OCCCn2c(=O)sc3ccccc32)cc1,16.8%,4.6%,-27.7%,-11.2%,-5.5%,-5.9%,-14.4%,?
COc1ccc(-c2c(C)c3ccc(O)c(CN4CCN(C)CC4)c3oc2=O)cc1OC,-7.6%,-13.6%[46.1 µM],/,/,-14.3%,-4.9%,/,/
O=C(CN1c2ccccc2Sc2ccccc21)NNC(=S)Nc1ccc(Cl)cc1,19.8%,-7.5%,10.3%,8.4%,/,/,2.2%,1.4%
CCOC(=O)N1CCC(NC(=O)C2CCCN(Cc3nc(-c4cccc(C)c4)oc3C)C2)CC1 (stereo not drawn),?,?,8.1%,-2.1%,/,/,-7.5%,?
Cc1cc(=O)oc2cc(OC(C)C)ccc12,38.0%[activator],3.8%,-13.4%,0.8%,-1.4%,-10.2%,-9.3%,24.5%
O=C(Oc1ccccc1F)c1nc(SCc2ccc(F)cc2)ncc1Cl,-18.2%,24.3%[46.1 µM],/,/,-0.7%,0.4%,/,-13.1%[46.1 µM]
COc1ccc2c(C(=O)CN3CCN(CCO)CC3)c[nH]c2c1,20.4%,16.0%,4.9%,-1.1%,-8.4%,-0.1%,12.6%,14.1%
c1ccc(CN2CCN(c3ncccn3)CC2)nc1,/,/,-2.2%,7.1%,-0.5%,-1.4%,/,/
Cc1ccc(-c2nn3c(C)nnc3c3ccccc23)cc1S(=O)(=O)NC(C)(C)CO,55.5%&55.8%[activator],-2.3%,0.3%,0.7%,-7.4%,0.4%,-8.2%,?
COc1ccc(NC(=O)C2CCC(CNc3c(N4CCCCC4)c(=O)c3=O)CC2)cc1OC (stereo not drawn),-7.1%&4.5%,8.5%[46.1 µM],-4.1%,-6.9%,-0.7%,3.7%,-0.1%&-0.1%,7.1%&7.1%[46.1 µM]
O=C(CC1Sc2ccccc2NC1=O)Nc1cccc(C(F)(F)F)c1 (stereo not drawn),13.9%,-7.5%[46.1 µM],/,/,-20.9%,-1.2%,/,/
O=C(NNC(=O)c1cccs1)c1ccco1,12.4%,2.9%,3.9%,0.7%,/,/,-5.3%,-6.0%[46.1 µM]
O=C1CSC(=S)N1N=Cc1cccc2ccccc12,-20.2%,-23.4%[46.1 µM],/,/,/,/,4.2%,?
CCOc1ccc2oc(C(=O)NN3C(C)CCCC3C)c(C)c2c1 (stereo not drawn),-11.2%,?,/,0.3%,/,/,-1.0%,6.0%
# Next records
SMILES,StopGo reporter,LASV entry inh,NS1 function inh,SARS PLP yeast,Cruzain noTriton,Cruzain inh Det,RE007 growth inh,Marburg entry inh
O=C1NC(c2ccccc2)=C(c2ccc3ccccc3n2)C(c2ccncc2)N1 (stereo not drawn),/,-27.0%,-3.3%,1.0%,6.6%,-7.4%,9.3%,2.1%
Cc1ccc(C(=O)c2oc3ccccc3c2NC(=O)Cc2coc3c(C)c(C)ccc23)cc1,11.0%,?,/,/,-24.8%,-1.4%,/,?
CC(C)(Oc1ccc(Cl)cc1)C(=O)OCC(=O)NCCc1ccc(S(N)(=O)=O)cc1,?,4.2%,/,2.3%,/,/,-18.7%,8.2%
COc1cnc(N(C)C)nc1Sc1cccc(Cl)c1,-22.3%,-3.6%,-0.7%,-8.5%,12.4%,-7.4%,-22.5%,?
O=c1cc(-c2ccccc2)oc2cccc(O)c12,38.9%&54.6%[activator],/,/,/,1.4%&0.4%,2.7%&-2.9%,-5.1%,/
Cc1cc(NCc2ccccn2)n2c(nc3ccccc32)c1C#N,-23.9%,/,-3.4%,-1.0%,/,/,-7.8%,/
Cc1nnc(SCC(=O)NC(C)(C)C)n1CCc1ccccc1,25.0%,-4.5%,-13.7%,18.0%,16.8%,-2.3%,9.8%,16.7%[46.1 µM]
Nc1ccc2c(c1)OC1(CCCC1)O2,1.41µM*,15.8µM*,2.3%,0.7%,/,/,-7.6%,?

# Screening results from PubChem.
